Compound activity (PubChem)
Measles inh – inhibitors of measles virus growth in infected cells | AID 745 | 33,000 tested, 0.1% active | infected Vero cells, GFP fluorescence, 64 h; hits give low values | z-score (concentration not given with the values);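 active = z-score under -3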;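 also: score is relative to mean and SD of the compound wells of a plate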
Numbers without * were called inactive.

Screening O=C(NCCN1CCOCC1)c1cc(Sc2ccc(F)cc2)nc2ccccc12 returned Measles inh -0.79.
For COc1ccc2nc(N3CCCC(C(=O)NC(C)c4ccccc4)C3)sc2c1 (stereo unspecified) the results were Measles inh 0.55.
`Cc1ccc(N/C=C/C(=O)c2ccc(C)cc2)cc1` gave Measles inh -1.2.
Screening O=C(O)c1ccc(N=c2oc3cc(O)ccc3cc2C(=O)Nc2ccc(Cl)cc2)cc1 returned Measles inh 3.6.
For C=CCN1C(=O)CSc2ccc(C(=O)NCCC3=CCCCC3)cc21 the results were Measles inh -0.18.
`CCCCNC(=O)c1cc(Nc2ccc(C(C)C)cc2)nc2ccccc12` gave Measles inh 0.04.
Screening NS(=O)(=O)c1ccc(Nc2nnc(-c3ccc(O)cc3)c3ccccc23)cc1 returned Measles inh -0.26.
Screening O=C(NC1CC1)c1cnn2c(C(F)(F)F)cc(-c3ccccc3)nc12 returned Measles inh 0.34.
`O=C(c1sc2cc(F)ccc2c1Cl)N1CCc2ccccc2C1` gave Measles inh 0.01.
`CC(C)OC(=O)c1c(-c2ccc(Br)cc2)csc1NC(=O)C1C2CCC(C2)C1C(=O)O` (stereo unspecified) gave Measles inh -1.
Fc1ccc(Cn2cnc3ccccc32)cc1 was read as Measles inh 0.19.
For COc1cc(-n2c(=O)c3ccccc3n(CC(=O)N3CCCC3)c2=O)cc(OC)c1OC the results were Measles inh -0.24.
`Cc1ccc(NC(=O)c2oc3ccc(S(=O)(=O)N4CCCCCC4)cc3c2C)cc1Cl` gave Measles inh -0.51.
`O=C(NC1CCCC1)c1ccc(Cn2c(=O)c3ccccc3n(Cc3cc(=O)n4ccccc4n3)c2=O)cc1` gave Measles inh 0.04.
For N#Cc1ccc(N2C(=O)C3C4C=CC(C4)C3C2=O)cc1 (stereo unspecified) the results were Measles inh 0.54.
Screening CCCCN1C(=O)C(=O)c2cc(Br)ccc21 returned Measles inh -0.15.
Screening Cc1ccc(NC(=O)NC(=O)N(c2ccccc2)S(C)(=O)=O)cc1 returned Measles inh 0.19.
`COc1ccc2nc(NC(=O)C3CCN(S(=O)(=O)c4c(C)n[nH]c4C)CC3)sc2c1` gave Measles inh 0.75.
Screening COc1cc(CN2CCN(C3CC4CCC3C4)CC2)cc(OC)c1OC (stereo unspecified) returned Measles inh 0.02.
`O=c1oc2ccccc2cc1C1=Nn2c(nnc2-c2cccnc2)SC1` gave Measles inh -0.16.

Brought forward from above: 3 compounds, then new ones.
`COc1ccc2nc(NC(=O)C3CCN(S(=O)(=O)c4c(C)n[nH]c4C)CC3)sc2c1` gave Measles inh 0.75.
Screening COc1cc(CN2CCN(C3CC4CCC3C4)CC2)cc(OC)c1OC (stereo unspecified) returned Measles inh 0.02.
`O=c1oc2ccccc2cc1C1=Nn2c(nnc2-c2cccnc2)SC1` gave Measles inh -0.16.
Screening COc1ccc(Cl)cc1C(=O)Nc1nnc(C)s1 returned Measles inh 0.7.
`Cc1ccc(C(=O)Nc2ccc(O)c(-c3nc4cc(C)ccc4o3)c2)cc1` gave Measles inh 0.15.
For CCCSc1nc2c(c(=O)[nH]c(=O)n2C)n1CCC(C)C the results were Measles inh -0.6.
For COc1cccc(-n2nc(C(=O)N(C)Cc3ccccc3)c3ccccc3c2=O)c1 the results were Measles inh -1.1.
For Cc1ccc(C(=O)O)cc1N1C(=O)CCCC1=O the results were Measles inh 0.68.
COc1ccc2oc(=Nc3ccccc3OC)c(C(=O)NC(C)=O)cc2c1 was read as Measles inh 0.05.
For CCOc1ccc(Nc2cc(C(=O)NCc3cccnc3)c3ccccc3n2)cc1 the results were Measles inh 0.5.
Screening O=C(Cn1c2ccccc2c(=O)c2ccccc21)Nc1ccc2c(c1)OCCO2 returned Measles inh 0.36.
O=C(O)CCC(=O)Nc1nc2nccc(-c3ccccc3)n2n1 was read as Measles inh -0.45.
`C=CCSc1nnc2c(n1)OC(c1cccs1)Nc1ccccc1-2` (stereo unspecified) gave Measles inh 0.07.
For COc1ccc2c(=O)cc(C(F)(F)F)oc2c1[N+](=O)[O-] the results were Measles inh 0.
`Cc1ccc(Cl)cc1N1CCN(C(=O)CCN2C(=S)NC(C)(C)CC2C)CC1` (stereo unspecified) gave Measles inh -0.12.
For Cc1ccc([N+](=O)[O-])cc1NC(=O)c1cccc(C(=O)Nc2cc([N+](=O)[O-])ccc2C)n1 the results were Measles inh 1.1.
CC(=O)Oc1ccccc1C1OCCN1C(C)=O (stereo unspecified) was read as Measles inh 0.93.
For Cc1ccc(-c2nnc(SCC(=O)N3CCCc4ccccc43)o2)cc1 the results were Measles inh 0.98.
`O=c1ncn2c3c(cnc(Cl)c13)CC2` gave Measles inh -0.3.
`CCOC(=O)c1cnc2cc(Cl)c(OC)cc2c1Nc1cnc2ccccc2c1` gave Measles inh 7.5.
For COC1=CC(=C2C=CC(=[N+](C)C)C=C2)Oc2ccccc21 the results were Measles inh 0.96.
`O=[N+]([O-])c1c(Nc2cc(C(F)(F)F)ccc2N2CCCCC2)ccc2nonc12` gave Measles inh -0.71.
Cc1cccc(N(CC(=O)NCc2ccccn2)S(C)(=O)=O)c1C was read as Measles inh -0.78.
CCCCOc1ccc(C2Nc3ccccc3C(=O)N2c2ccc(F)cc2)cc1 (stereo unspecified) was read as Measles inh 1.4.
`CN(C1=NS(=O)(=O)c2ccccc21)c1ccc(OC(=O)c2cccc3ccccc23)cc1` gave Measles inh 0.56.
CSc1nnc2c(n1)OC(c1ccsc1)Nc1ccc(Br)cc1-2 (stereo unspecified) was read as Measles inh 0.04.
CCS(=O)(=O)N1N=C(c2ccccc2)CC1c1ccc2nccnc2c1 (stereo unspecified) was read as Measles inh -0.23.
Cn1c(=O)[nH]c(=O)c2c1nc(SCC(=O)O)n2CC(N)=O was read as Measles inh 0.34.
COc1ccc(-c2cc(C(F)(F)F)[nH]n2)cc1 was read as Measles inh -0.05.
For O=C(CCn1c(=O)c2sccc2n(Cc2ccc([N+](=O)[O-])cc2)c1=O)NCc1ccc2c(c1)OCO2 the results were Measles inh -0.7.
Screening COc1cc(C(=O)Nc2cccc(-c3nc4ncccc4o3)c2)ccc1OCc1ccc(Cl)cc1 returned Measles inh 0.4.
For Cc1n[nH]c(C)c1S(=O)(=O)N1CCCC(C(=O)Nc2nccs2)C1 (stereo unspecified) the results were Measles inh 1.1.
`Cc1ccc(CN2C(=O)C3C(C(=O)Nc4ccc(Br)cc4)C4C=CC3(O4)C2C(=O)NC2CCCCC2)cc1` (stereo unspecified) gave Measles inh -1.1.
`CCCc1cc2c(=O)c(-c3ccccn3)coc2cc1OC(C)=O` gave Measles inh -1.5.
Screening COc1cc(C(=O)Nc2cccnc2)ccc1OCc1ccccc1Cl returned Measles inh -1.4.
Screening CCOC(=O)c1sc(=S)n(-c2cccc(Cl)c2C)c1N returned Measles inh 0.47.
CC(C)(C)c1ccc(S(=O)(=O)N2CCOCC2)cc1 was read as Measles inh -1.1.
Screening COc1cccc(NC(=O)CN(C)S(=O)(=O)c2cccs2)c1 returned Measles inh 0.11.
Cn1c(=O)[nH]c(=O)c2c1[nH]c(=S)n2CCCc1ccccc1 was read as Measles inh -1.9.
Cc1ccc2c(c1)c(=O)c1ccccc1n2CC(=O)N1CCN(c2ccccc2)CC1 was read as Measles inh 1.6.
CCOC(=O)c1cccc(NC(=O)c2ccc(F)cc2)c1 was read as Measles inh -0.82.
CCC(=O)N1c2ccc(S(=O)(=O)NCCCN3CCC(C)CC3)cc2CC1C (stereo unspecified) was read as Measles inh -1.3.
O=C(C1c2ccccc2C(=O)N2CCc3ccccc3C12)N1CCN(c2ccc(F)cc2)CC1 (stereo unspecified) was read as Measles inh 1.4.
`CCOc1ccc2nc(NC(=O)C3(S(=O)(=O)c4ccc(Cl)cc4)CC3)sc2c1` gave Measles inh -0.14.
For CCc1c(C)nc2[nH]nc(-c3ccccc3OC)n2c1=O the results were Measles inh 2.1.
COC(=O)c1ccc(NC(=O)C2(S(=O)(=O)c3ccc(Cl)cc3)CC2)cc1 was read as Measles inh 0.34.
For Cc1cc(N2CCCCC2)nc2ccc(NC(=O)Cc3ccccc3Br)cc12 the results were Measles inh 1.2.
Screening Cc1cc(Br)ccc1NC(=O)c1sc2ncn(CC(=O)N3CCCCC3)c(=O)c2c1C returned Measles inh 1.4.
Screening Cc1cccc(C)c1NC(=O)CCS(=O)(=O)c1ccc(Br)cc1 returned Measles inh 1.4.
For O=C(COc1ccc([N+](=O)[O-])cc1)Nc1cccnc1 the results were Measles inh -0.5.
`O=C(NCCNc1ccc2ccccc2c1)c1ccc2nc3ccccc3c(=O)n2c1` gave Measles inh 1.1.
For CC1=C(C(=O)Nc2ccccc2)C(c2cccs2)n2nc(SCc3ccccc3)nc2N1 (stereo unspecified) the results were Measles inh -0.51.
`Cc1ccc(C2C(C(=O)c3cccs3)=C(O)C(=O)N2CCN2CCOCC2)o1` (stereo unspecified) gave Measles inh 0.88.
For CCSc1nnc2c(n1)OC(c1ccc(O)c(Cl)c1)Nc1ccccc1-2 (stereo unspecified) the results were Measles inh -0.56.
`Nc1c(C(=O)NCCc2ccccc2)nnn1-c1ccc2c(c1)OCCO2` gave Measles inh -0.79.
Screening COc1cc(C=Nc2oc(C)c(C)c2C#N)ccc1O returned Measles inh 0.2.
Screening COc1ccc(C(=O)c2sc3nc(N)c(C#N)c(-c4ccc(OC)cc4)c3c2N)cc1 returned Measles inh 1.4.
For CCOC(=O)c1c(NC(=O)c2cccc([N+](=O)[O-])c2C)sc(C)c1C the results were Measles inh 0.1.
`Cc1csc(NC(=O)CN(C)S(=O)(=O)c2ccc3c(c2)CCC(=O)N3)n1` gave Measles inh -2.2.
Screening COc1cc(C2C(C(=O)OC3CCCCCC3)=C(C)NC3=C2C(=O)CCC3)cc(OC)c1OC (stereo unspecified) returned Measles inh -0.84.
For CCCCCOC(=O)C1=C(C)NC2=C(C(=O)CCC2)C1c1ccccc1OC(C)C (stereo unspecified) the results were Measles inh -0.81.
`Cc1ccc(S(=O)(=O)Nc2c(-c3ccccc3)c3cc(Cl)ccc3[nH]c2=O)cc1` gave Measles inh -0.78.
Nc1cccc(C(=O)N2CCCCC2)c1 was read as Measles inh -0.38.
For CCC(=O)N1CCc2cc(Br)cc(S(=O)(=O)NCCCN3CCN(c4ccccc4F)CC3)c21 the results were Measles inh -0.62.
For COc1ccc(Cn2c(SCC(=O)Nc3cc(C)on3)nc3cc4c(cc3c2=O)OCO4)cc1 the results were Measles inh -1.2.
For CCC(=O)N1c2ccccc2-c2nnc(SC)nc2OC1c1ccc(OC)cc1 (stereo unspecified) the results were Measles inh 1.1.
CCc1ccccc1N(C)C(=O)c1nn(-c2ccc(OC)cc2)c(=O)c2ccccc12 was read as Measles inh -1.1.
COc1ccc(-c2cc(C(F)(F)F)n3nc(C(=O)OC(C)C)cc3n2)cc1OC was read as Measles inh -0.34.
COc1ccc(CNc2oc(COc3ccc(OC)cc3)nc2C#N)cc1 was read as Measles inh -0.84.
Cc1ccn2c(Nc3ccc(F)cc3)c(-c3ccco3)nc2c1 was read as Measles inh -0.7.
`CC1CC(C)CN(C(=O)CSc2nc3ccccc3c(=O)n2C2CC2)C1` (stereo unspecified) gave Measles inh -0.87.
`CCOc1ccccc1CNC(=O)c1cc(=O)[nH]c2ccc(S(=O)(=O)N3CCCC(C)C3)cc12` (stereo unspecified) gave Measles inh -0.44.
CC1(C)CC(=O)C2=C(C1)Nc1cc(C(=O)c3ccccc3)ccc1NC2c1ccc(Cl)cc1 (stereo unspecified) was read as Measles inh -0.33.
CSc1nc(N)nc(SCC(=O)C(C)(C)C)c1C#N was read as Measles inh -0.12.
For CCOC(=O)c1cnc2ccc(Br)cc2c1Nc1ccc(O)cc1 the results were Measles inh 0.51.
`CCN1CCN(CCCNC(=O)c2ccc3c(c2)ncn3C2CCCC2)CC1` gave Measles inh 0.59.
Screening Cc1nn(C)c(C)c1S(=O)(=O)Nc1ccc(C(C)C)cc1 returned Measles inh -0.07.
CC1CCCCC1N=c1c([N+](=O)[O-])nn(-c2ccccc2)n1O (stereo unspecified) was read as Measles inh -0.48.
`CC(C)CCNC(=O)CN1C(=O)CSc2ccc(S(=O)(=O)N3CCOCC3)cc21` gave Measles inh 1.6.
O=C(NCC1CCCO1)c1ccc(N2CCCC2=O)cc1 (stereo unspecified) was read as Measles inh 1.2.
Screening NC(=O)c1c(NC(=O)COc2ccccc2Br)sc2c1CCCC2 returned Measles inh 0.86.

A draw from above in order of length of the SMILES, descending:
For CCC(=O)N1CCc2cc(Br)cc(S(=O)(=O)NCCCN3CCN(c4ccccc4F)CC3)c21 the results were Measles inh -0.62.
For COc1ccc(Cn2c(SCC(=O)Nc3cc(C)on3)nc3cc4c(cc3c2=O)OCO4)cc1 the results were Measles inh -1.2.
CCc1ccccc1N(C)C(=O)c1nn(-c2ccc(OC)cc2)c(=O)c2ccccc12 was read as Measles inh -1.1.
For CCC(=O)N1c2ccccc2-c2nnc(SC)nc2OC1c1ccc(OC)cc1 (stereo unspecified) the results were Measles inh 1.1.
CSc1nc(N)nc(SCC(=O)C(C)(C)C)c1C#N was read as Measles inh -0.12.

Some of the compounds tested, so the mix of outcomes need not match the whole.
